Vaccinia mCherry: qHTS for Stage-Specific Inhibitors of Vaccinia Orthopoxvirus: mCherry Reporter Primary qHTS; 310,000 tested, 0.63% active; Potency, µM (series often up to 36.5 µM), for the others: at the top dose activity change, negative = inhibition, usual class: inhibitors; AID 720579, 2013; Vaccinia virus mCherry reporter infection, fluorescence; about a quarter of the inactives have no number; active = well fitted inhibition curve with a large enough effect; inconclusive = small, poorly fitted or top-dose-only effect; inactive = no such curve, though single readings can be large or run the other way; tested in A549 cells; further: nearly all actives have a fitted effect of over 35% in size; inactives centre near -10
Vaccinia Venus: qHTS for Stage-Specific Inhibitors of Vaccinia Orthopoxvirus: Venus Reporter Primary qHTS | Vaccinia virus Venus reporter expression, fluorescence | Potency, µM (titrated, usually from 36.5 µM), without a hit: at the top dose activity change, negative = inhibition, hits mostly inhibitors | 330,000 tested, 0.46% active | AID 720580, 2013; active means well fitted inhibition curve with a large enough effect; inconclusive means small, poorly fitted or top-dose-only effect; inactive means no such curve, though single readings can be large or run the other way; tested in A549 cells; further: nearly all actives have a fitted effect of over 30% in size; inactives centre near -10
* marks the source's active call; other numbers are inactive results; i = inactive; ? = inconclusive; nt = not tested or not shown; & = joins results of further samples; [ ] = another dose, or the depositor's remark. On the % scale 0 is the no-effect control and ±100 the full control effect; potency means the concentration at half of the fitted maximal effect.

SMILES	Vaccinia mCherry	Vaccinia Venus
CCOC(=O)CCSCC(=O)N1N=C(c2cccs2)CC1c1ccc(C)cc1 (configuration not stated)	0%	-14%
CC(=O)c1ccc(N2C(=O)[C@@H]3[C@H](C2=O)[C@H]2c4ccccc4C=NN2[C@@H]3C(C)=O)cc1	i	-12%
CC(C)Oc1ccc(C(CC(=O)NCCCN(C)C)c2ccc(F)cc2)cc1 (configuration not stated)	-19%	-18%
C#CCOCCOCCOCCNc1nc(N2CCN(C(=O)[C@H]([C@@H](C)CC)n3cc([C@@H](N)Cc4ccc(O)cc4)nn3)CC2)nc(N2CCN(C(=O)[C@H](CCCCN)n3cc([C@@H](N)C(C)CC)nn3)CC2)n1 (some centres not stated)	-11%	1%
O=C(NCc1ccccc1)C1CCN(S(=O)(=O)Cc2ccccc2)CC1	-12%	-9%
CCSP1(=S)N=C(N2CCOCC2)C(C#N)=C2CCCN21 (configuration not stated)	-13%	-13%
COc1ccc(-n2ncc3c2CC(C)(C)CC3NC(=O)CCc2c(C)nn(C)c2C)cc1 (configuration not stated)	i	-9%
O=C1CCCCCC1C1(O)C(=O)Nc2ccccc21 (configuration not stated)	nt	-11%
COc1ccccc1OCc1nnc(SCC(=O)NCc2ccco2)n1-c1ccccc1	-16%	-11%
Cc1cccn2c(=O)c3cc(C(=O)NCCc4ccccc4)c(=N)n(Cc4ccco4)c3nc12	-30%	-17%
COc1ccccc1OCC(=O)NC1CC(=O)N(c2ccc3c(c2)OCCO3)C1 (configuration not stated)	-15%	-7%
O=C(O)CCSC1CC(=O)N(c2ccccc2)C1=O (configuration not stated)	i	-9%
Cc1ccc(C2=NN3C(C2)c2ccccc2OC32C(=O)Nc3ccccc32)cc1 (configuration not stated)	nt	-18%
COc1nc(Nc2ccccc2F)nc(OC)n1	i	-19%
CC1(C)CC(=O)C2=C(C1)N(c1ccccc1)C(N)=C(C#N)C2c1cccnc1 (configuration not stated)	-19%	-2%
CCCOc1c(OC)cccc1C1CC(=O)Nc2cc(OC)c(OC)c(OC)c21 (configuration not stated)	nt	-4%
CCC(CC)C(=O)Nc1ccc2nc(SCC(=O)N3CCCC3)sc2c1	-5%	-3%
O=C(CN1C(=O)NC2(CCCCC2)C1=O)NCc1cccs1	i	-22%
CCc1ccc(NC(=O)CN2CCN(Cc3ccccc3)S2(=O)=O)cc1	-13%	-10%
COc1cccc(NC(=O)C2(C)CCN2C(=O)CCc2ccc(Cl)cc2Cl)c1 (configuration not stated)	-11%	-11%
Cc1ccc(C(=O)NCC(=O)Nc2ccc3c(c2)OCCO3)cc1	-8%	-15%
Cc1ccccc1Nc1c(-c2ccncc2)nc2ccc(Cl)cn12	?	?
CCCCC(=O)NC(N1CCCCC1)C(Cl)(Cl)Cl (configuration not stated)	nt	?
COc1ccccc1-c1nc2n(n1)C(c1ccccc1Cl)C(C(N)=O)=C(C)N2 (configuration not stated)	-5%	6%
O=C(Nc1nc(-c2ccc(-c3ccccc3)cc2)cs1)c1cc([N+](=O)[O-])ccc1N1CCOCC1	-15%	-10%
C[C@H]1CN([C@@H](C)CO)C(=O)CCCn2cc(nn2)CO[C@@H]1CN(C)C(=O)Oc1ccccc1	16%	-2%
COc1ccc(N(C(=O)Cn2nnc(-c3ccc(Cl)cc3)n2)C(C(=O)NCC2CCCO2)c2ccncc2)cc1 (configuration not stated)	i	-15%
COC(=O)[C@@]12CCCCN1[C@H](c1ccc(-c3cccc(Cl)c3)cc1)[C@@H]1C(=O)N(C)C(=O)[C@@H]12	-29%	?
CCOC(=O)Cc1c(C)nc2c(-c3ccc(Cl)cc3)c[nH]n2c1=O	-11%	-13%
CCC(=O)Nc1cccc(C(=O)/C=C/c2cccs2)c1	-15%	-27%
Cc1ccc(OCCC(=O)NNC(=O)c2nn(C)c(=O)c3ccccc23)cc1	13%	-7%
COC(=O)c1ccccc1S(=O)(=O)N1Cc2cc([N+](=O)[O-])ccc2Oc2ccccc21	-8%	-6%
CC(C)Nc1ccc(-c2nc(-c3ccco3)no2)cc1[N+](=O)[O-]	-21%	-14%
Cn1c(CCc2ccccc2)nnc1SCC(=O)N1CCCC1	nt	-5%
CSc1nc(N)c(C#N)c(-c2ccccc2Cl)c1C#N	nt	?
Cc1occc1C(=O)NNC(=S)NCc1ccc(Cl)cc1	-24%	-6%
Cc1nnc(NC(=O)CCC(=O)N2CCC(C)CC2)s1	?	-7%
N#C/C(=C/c1ccc(OCc2ccc(C(=O)O)cc2)c(Br)c1)c1cccc(F)c1	2%	-11%
CN1CCN(C(=O)CN(C)S(=O)(=O)c2ccc(F)cc2)CC1	-1%	-10%
COc1cc(SC)ccc1C(=O)OCC(=O)N1CCCC1	36%[activator]	-9%
Cc1ccc(NC(=O)Cc2nnc(SCC(=O)Nc3ccccc3)n2C)cc1	-13%	3%
COc1ccc(-c2ncncc2-c2ccc(Cl)cc2)c(O)c1	-15%	7%
O=C(O)C1CCC(=O)N1C1CCCC1 (configuration not stated)	nt	-5%
COc1cccc(-c2cc(C(=O)N3CCN(C(=O)c4ccco4)CC3)on2)c1	-1%	-19%
COc1ccc(Cl)cc1C(=O)NNC(=O)c1nc2nc(C)cc(C)n2n1	i	11%
O=C1CN(C(=O)c2ccc(Br)o2)C(c2ccccc2)c2cc(F)ccc2N1 (configuration not stated)	-1%	-22%
Cc1onc(-c2c(F)cccc2Cl)c1C(=O)N1CCN(c2ncc(Br)cn2)CC1	-29%	-13%
Cc1ccc(NC(=O)COc2coc(CN3CCN(Cc4ccccc4)CC3)cc2=O)cc1	i	-21%
CCN=C1SC(CC(=O)Nc2sc3c(c2C#N)CCCC3)C(=O)N1CC (configuration not stated)	nt	-11%
Cc1ccccc1C(=O)N1CCC(C(=O)Nc2ccc(S(=O)(=O)N3CCCCC3)cc2)CC1	?	-28%

The results go on.
SMILES	Vaccinia mCherry	Vaccinia Venus
O=C(Nc1ccc(N2CCOCC2)cc1)c1csc([C@@H]2O[C@H](CO)[C@H](O)[C@H](O)[C@H]2O)n1	6%	-1%
CCOC(=O)C1=C(CSCc2ccccc2)NC(=O)NC1c1cc(C)ccc1C (configuration not stated)	?	?
O=C(N/N=C1/CC2C=CCC12)c1cccs1 (configuration not stated)	-8%	-5%
[N-]=[N+]=N[C@@H](CCN1CC[C@H](O)CCC1=O)c1ccccc1	-26%&-3%	-6%&-6%
Cc1ccc(NC(=S)N=Nc2c(O)n(C)c3ccc(S(=O)(=O)N4CCOCC4)cc23)cc1C	i	-18%
Clc1ccccc1CSc1nncn1NC/C=C/c1ccccc1	i	-17%
Cc1ccccc1NC1=C(Cl)C(=O)OC1OC(=O)c1ccco1 (configuration not stated)	-1%	0%
CCOC(=O)[C@]12Cc3cc4ccccc4cc3[C@H]1N(Cc1ccccc1)C(=O)c1ccccc12	?	?
CC1SC(c2ccccc2Cl)NC1=O (configuration not stated)	nt	-23%
C[C@H](CO)N1C[C@H](C)[C@@H](CN(C)Cc2ccc(O)cc2)OCc2cnnn2CCCC1=O	i	1%
COc1cccc(CNc2nc(Cl)nc3nc[nH]c23)c1	-19%&-2%	-21%&-20%
CCOc1ccc(-n2c(SCC(N)=O)nnc2-c2ccco2)cc1	-1%	-19%
C[C@H]1CC[C@]2(NC1)O[C@H]1C[C@H]3[C@@H]4CC[C@H]5C[C@@H](O[C@@H]6O[C@H](CO)[C@H](O[C@@H]7O[C@H](CO)[C@@H](O)[C@H](O[C@@H]8OC[C@@H](O)[C@H](O)[C@H]8O)[C@H]7O[C@@H]7O[C@H](CO)[C@@H](O)[C@H](O)[C@H]7O)[C@H](O)[C@H]6O)CC[C@]5(C)[C@H]4CC[C@]3(C)[C@H]1[C@@H]2C	?	?
O=C(Nc1ccccc1Cl)N(Cc1nc2ccccc2c(=O)[nH]1)Cc1cccs1	-5%	0%
CN(Cc1ccccc1Cl)C(=O)c1cc2ccccc2o1	-4%	9%
CCOc1ccc(NC(=O)CN(C)C(=O)c2cc(C)oc2C)cc1OCC	-18%	-14%
CN(Cc1ccccc1)C(=O)c1ccc(NC(=O)Cc2cccc(NC(=O)C3CCN(C(=O)C4CCCC4)CC3)c2)cc1	i	-28%
O=C(Nc1sc2c(c1C(=O)NCC1CCCO1)CCCC2)c1cccs1 (configuration not stated)	-27%	-22%
Cc1ccc(-n2ncc(C(=O)NCCCN3CCc4ccccc4C3)c2C2CCN(C(=O)OC(C)(C)C)CC2)cc1C	-18%	-29%
CCN(CC)CCN1C(=O)C(=O)/C(=C(/O)c2ccncc2)C1c1ccccc1 (configuration not stated)	nt	-5%
Cc1ccc2oc3c(c(=O)c2c1)C(c1cccs1)N(CCCN(C)C)C3=O (configuration not stated)	i	3%
NC(=O)NC(=O)CC1S/C(=N/N=C/c2ccccc2)NC1=O (configuration not stated)	i	-12%
O=C(NCc1cccc(F)c1)c1ccc(-n2cnc3cccnc32)cc1	i	-14%
Oc1cccc(-c2sc3ccccc3c2-c2ccc(OCCN3CCCCC3)cc2)c1	-19%	-25%
CS(=O)(=O)c1ccc(Cl)c(NC(=O)COC(=O)CNC(=O)c2sc3ccccc3c2Cl)c1	i	-12%
Cn1cc(C(=O)NCN2CCCCC2)c2ccccc21	nt	-12%
O=C(CCSc1ccccn1)c1ccccc1	i	-14%
O=C(Nc1ccc(Br)cc1Cl)c1cnn2c1NC(=C1CC1)C=C2C(F)F	-10%	-8%
O=C(O)CNc1nc(-c2ccccc2)nc2ccccc12	-6%	7%
COC(=O)CC(=O)N1CCN(c2ccc(Cl)c(Cl)c2)CC1	0%	-11%
Cc1oc(-c2ccccc2Cl)nc1Cn1cccc1C1=NC(c2ccccc2)CO1 (configuration not stated)	-28%	-12%
CC(=O)Nc1ccc(NC(=O)c2sc(-c3ccccc3)nc2C)cc1	-13%	-8%
CCCNC(=O)c1ccc(OC)cc1OC	-26%	-17%
COc1ccc(C(=O)OCCOc2cccc(Cl)c2)cc1S(=O)(=O)N1CCOCC1	-7%	4%
CNC(=O)c1sc(-c2cccs2)nc1C	9%	1%
CCC(C)c1ccc(NC(=O)c2cnn3c(C(F)F)cc(C)nc23)cc1 (configuration not stated)	10%	7%
COc1cccc(Nc2ncccc2C(=O)O)c1	-1%	-7%
COc1ccc(/C=C\C(=O)NC2CC(=O)N(c3ccccc3)C2)cc1OC (configuration not stated)	-5%[7.34 µM]	-2%[7.34 µM]
CCOC(=O)N/N=C/C(Cl)=C/c1ccccc1	-6%	-8%
CCOCC(=O)Nc1ccc(S(=O)(=O)N2CCC(c3nc4ccccc4[nH]3)CC2)cc1	i	-22%
COc1cccc(-c2cc(=O)c3ccc(OC)cc3o2)c1	i	0%
CCOc1ccccc1NC(=O)c1cccc(S(=O)(=O)N(Cc2ccccc2)c2ccccc2OC)c1	-14%	-12%
CCOC(=O)c1cn(Cc2cccc(Cl)c2)nn1	i	-9%
COc1ccc([C@H]2CC(=O)C=C(c3cc(C=O)ccc3OC)C2)cc1OC	-22%	-14%
COC(=O)[C@H](CC(C)C)NS(=O)(=O)NC(=O)OC(C)(C)C	-16%	-10%
CCc1cc(=O)oc2c3c(c(Cl)cc12)OCN(Cc1cccc(OC)c1)C3	-5%	4%
FC(F)Oc1ccc(-c2csc(=Nc3cccnc3)n2CC2CCCO2)cc1 (configuration not stated)	-27%	-25%
CCC1CCc2c(sc(NC(=O)C3c4ccccc4Oc4ccccc43)c2C(=O)OC)C1 (configuration not stated)	-21%	-20%

In the list so far, 12 have a thiophene ring, fused or not:
SMILES	Vaccinia mCherry	Vaccinia Venus
CCOC(=O)CCSCC(=O)N1N=C(c2cccs2)CC1c1ccc(C)cc1 (configuration not stated)	0%	-14%
O=C(CN1C(=O)NC2(CCCCC2)C1=O)NCc1cccs1	i	-22%
CCC(=O)Nc1cccc(C(=O)/C=C/c2cccs2)c1	-15%	-27%
CCN=C1SC(CC(=O)Nc2sc3c(c2C#N)CCCC3)C(=O)N1CC (configuration not stated)	nt	-11%
O=C(N/N=C1/CC2C=CCC12)c1cccs1 (configuration not stated)	-8%	-5%
O=C(Nc1ccccc1Cl)N(Cc1nc2ccccc2c(=O)[nH]1)Cc1cccs1	-5%	0%
O=C(Nc1sc2c(c1C(=O)NCC1CCCO1)CCCC2)c1cccs1 (configuration not stated)	-27%	-22%
Cc1ccc2oc3c(c(=O)c2c1)C(c1cccs1)N(CCCN(C)C)C3=O (configuration not stated)	i	3%
Oc1cccc(-c2sc3ccccc3c2-c2ccc(OCCN3CCCCC3)cc2)c1	-19%	-25%
CS(=O)(=O)c1ccc(Cl)c(NC(=O)COC(=O)CNC(=O)c2sc3ccccc3c2Cl)c1	i	-12%
CNC(=O)c1sc(-c2cccs2)nc1C	9%	1%
CCC1CCc2c(sc(NC(=O)C3c4ccccc4Oc4ccccc43)c2C(=O)OC)C1 (configuration not stated)	-21%	-20%

High-throughput results from PubChem.
